Source: PubChem
RE007 growth inh: less growth of the S. pombe RE007 Vpr strain; 360,000 tested, 0.21% active; S. pombe RE007 Vpr strain, BacTiter-Glo ATP luminescence, 24 h; control for the full effect not named in the record; Potency, µM (top dose mostly 92.2 µM), for the others: top-dose activity change, negative = less growth; AID 651644; active = well fitted falling curve with a large enough effect; inconclusive = small, poorly fitted or top-dose-only effect; inactive = no such curve, though single readings can be large or run the other way;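 note: % is set by controls: 0 for no effect and ±100 for the full control effect; nearly all actives have a fitted effect of over 50% in size; the assay follows cell death caused by Vpr and the record does not say whether a fall means rescue or toxicity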
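Fission yeast strain RE007, carrying one chromosomally integrated HIV-1 vpr copy, was seeded at OD 0.01 in PMG+AL medium with 23 nL pinned compound. After 24 h at 30 °C and 99% humidity, viability was read by BacTiter-Glo luminescence.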
Cruzain inh noDet: inhibitors of Trypanosoma cruzi cruzain without detergent; P25779; purified cruzain, Z-FR-AMC fluorescence, no detergent; Potency, µM, for inactives: max response, negative = inhibition, most hits filed as inhibitors; 200,000 tested, 2.3% active;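 note: plate controls were enzyme without inhibitor for no effect and buffer without enzyme for full effect; nearly all actives have a fitted effect of over 40% in size; top concentration of the series not given in the record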
Target sequence (P25779 123-467 limits assumed): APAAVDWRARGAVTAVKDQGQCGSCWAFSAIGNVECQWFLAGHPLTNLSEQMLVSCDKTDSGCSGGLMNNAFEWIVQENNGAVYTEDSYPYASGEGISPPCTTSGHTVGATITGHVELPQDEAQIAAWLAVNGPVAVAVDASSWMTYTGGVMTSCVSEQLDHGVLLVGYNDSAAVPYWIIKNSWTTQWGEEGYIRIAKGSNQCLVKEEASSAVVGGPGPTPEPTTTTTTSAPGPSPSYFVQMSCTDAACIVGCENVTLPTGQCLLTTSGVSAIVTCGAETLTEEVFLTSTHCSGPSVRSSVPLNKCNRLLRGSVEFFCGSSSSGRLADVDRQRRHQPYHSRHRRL
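Purified cruzain at 1.5 nM, pre-incubated 15 min with compound at room temperature in 100 mM sodium acetate pH 5.5, 5 mM DTT, 0.00005% Triton X-100. Reaction started with 2 uM Z-FR-AMC; AMC fluorescence increase over 60 s gives rate.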
Cruzain Triton: blocks cruzain activity in presence of Triton detergent. P25779. purified cruzain, Z-FR-AMC fluorescence, 0.01% Triton. Potency, µM, for inactives: max response, negative = inhibition, usual class: inhibitors. 200,000 tested, 0.43% active;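 note: plate controls were neutral wells for no effect and buffer without enzyme for full effect; nearly all actives have a fitted effect of over 40% in size; top concentration of the series not given in the record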
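Steps: dispense cruzain (1.5 nM final) in acetate buffer pH 5.5 with DTT and 0.01% Triton X-100; pin-transfer compounds; incubate 15 min RT; add Z-FR-AMC (2 uM final); read fluorescence every 30 s, using the 60 s intensity change.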
NS1 function inh: inhibitors of influenza NS1 protein function; S. cerevisiae slowed by influenza A NS1, growth recovery by OD600; Potency, µM (highest dose often 46.1 µM), without a hit: at the highest dose activity, positive = more growth; 270,000 tested, 0.4% active; AID 2326; active means well fitted rising curve with a large enough effect; inconclusive means small, poorly fitted or top-dose-only effect; inactive means no such curve, though single readings can be large or run the other way; note: nearly all actives have a fitted effect of over 50% in size
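Recovery from NS1-induced slow growth read by OD600 in budding yeast switched to galactose assay medium (pH 6.0, -URA) at 1:100 dilution. Compound 23 nl per well; the matching strain lacking NS1 serves as control.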
SARS PLpro yeast: inhibitors of SARS-CoV papain-like protease in yeast; S. cerevisiae expressing SARS-CoV PLpro, growth rescue; control for the full effect not named in the record; Potency, µM (series often up to 32.9 µM), for the others: at the top dose activity, positive = growth rescue; 330,000 tested, 0.19% active; AID 485353; active means well fitted rising curve with a large enough effect; inconclusive means small, poorly fitted or top-dose-only effect; inactive means no such curve, though single readings can be large or run the other way; note: 0% is about no effect; nearly all actives have a fitted effect of over 55% in size; growth read by luminescence after 48 h
Marburg entry inh: Marburg virus entry inhibition; 300,000 tested, 1.8% active; Potency, µM (highest dose often 37.8 µM), for inactives: at the top dose activity change, negative = inhibition, usual class: inhibitors; AID 540276; Marburg virus pseudotyped entry inhibition, cell reporter; control for the full effect not named in the record; about a third of the inactives were read at about 46 µM; active = well fitted inhibition curve with a large enough effect; inconclusive = small, poorly fitted or top-dose-only effect, or effect the other way; inactive = flat fitted curve, though single readings scatter; tested in HEK293 cells; about a fifth of its hits are not listed in these tables; note: % is set by controls: 0 for no effect and ±100 for the full control effect; luciferase read-out
2A StopGo: FMDV 2A StopGo reporter, luciferase signal; Potency, µM (highest dose often 57.9 µM), for the others: at the highest dose signal change, negative = less light; 410,000 tested, 1.2% active; AID 1159524; human cells with a luciferase reporter of 2A StopGo recoding; control for the full effect not named in the record; active = well fitted falling curve with a large enough effect; inconclusive = small, poorly fitted or top-dose-only effect; inactive = no such curve, though single readings can be large or run the other way; tested in HEK293T cells; note: % is set by controls: 0 for no effect and ±100 for the full control effect; nearly all actives have a fitted effect of over 45% in size; luciferase light after 4 h
Lassa entry inh: Lassa virus entry inhibition; Lassa virus pseudotype entry inhibition, cell reporter; control for the full effect not named in the record; Potency, µM (doses to about 37.9 µM), inactives show at the highest dose activity change, negative = inhibition, actives largely listed as inhibitors; 300,000 tested, 1.2% active; AID 540256; active means well fitted inhibition curve with a large enough effect; inconclusive means small, poorly fitted or top-dose-only effect, or effect the other way; inactive means flat fitted curve, though single readings scatter; tested in HEK293 cells; note: % is set by controls: 0 for no effect and ±100 for the full control effect; nearly all actives have a fitted effect of over 50% in size; luciferase read-out
* = called active by the depositor; u = inconclusive; x = not tested or not shown; [ ] = another dose, or the depositor's remark. Unless noted, calls come from the whole dose curve; as a rule, active = well fitted curve in the direction sought with a large enough effect; inconclusive = small, poorly fitted or top-dose-only effect, or another doubt; inactive = no such curve, though single readings can be large; an effect the other way counts as inactive or inconclusive. Potency is the fitted concentration of half-maximal effect.

nr	compound	2A StopGo	SARS PLpro yeast	NS1 function inh	RE007 growth inh
1	C=CCN(CC=C)CCOc1ccccc1F	0%	-2%	u	0%
2	CCn1c(=O)c2cc(C(=O)N(CC(C)C)CC(C)C)sc2c2ccccc21	0%	x	x	x
3	CCOc1ccc(CCNC(=O)c2c(C)nn(-c3ccccc3)c2Cl)cc1OCC	0%	-5%	-1%	-13%
4	COc1ccccc1/C=N/NC(=O)c1cccc(NC(=O)c2ccccc2C)c1	-14%	-8%	5%	3%
5	COc1ccc(-c2nc(CCNC(=O)c3ccco3)cs2)cc1OC	-1%	-13%	u	13%
6	CCOC(=O)CN1C(=O)S/C(=C/c2ccc(OCc3ccc(C(=O)O)cc3)cc2)C1=O	-11%	2%	3%	8%
7	CCc1ccc2nc(NC(=O)c3ccc4c(=O)[nH]c(CN5CCOCC5)nc4c3)sc2c1	8%	3%	3%	3%
8	O=C(NCC1(O)CCCCC1)C1CCC(=O)N(CCc2ccccc2)C1 (stereo not drawn)	x	2%	-2%	-8%
9	Cc1ccc(S(=O)(=O)Cn2nnnc2C(c2ccc(F)cc2)N2CCCCC2)cc1 (stereo not drawn)	-10%	11%	-36%	18%
10	COCCNC(=O)/C(C#N)=C/c1cn(CC(=O)NCc2ccco2)c2ccccc12	-7%	-3%	x	9%
11	Oc1ccc(C(=S)N2CCCCCC2)cc1	12%	-5%	3%	5%
12	CC(=O)Nc1ccc2c(c1)Cc1c-2cc(Br)c(N)c1Br	30%	x	x	-2%

nr	Lassa entry inh	Marburg entry inh	Cruzain Triton	Cruzain inh noDet
1	-2%	0%	0.8%	7%
2	15%[46.1 µM]	u	3.1%	-9%
3	-9%[46.1 µM]	-14%[46.1 µM]	x	x
4	16%	-11%	x	x
5	u	u	-26%	-3%
6	19%[46.1 µM]	11%[46.1 µM]	x	x
7	2%	1%	-4.4%	-7%
8	12%	4%	x	x
9	4%	-12%	1.0%	11%
10	2%[46.1 µM]	u	x	x
11	-13%	0%	-22%	-3%
12	20%	u	x	x

Five of the compounds above, with bars between the fields:
nr | canonical_smiles | 2A StopGo | SARS PLpro yeast | NS1 function inh | RE007 growth inh | Lassa entry inh | Marburg entry inh | Cruzain Triton | Cruzain inh noDet
2 | CCn1c(=O)c2cc(C(=O)N(CC(C)C)CC(C)C)sc2c2ccccc21 | 0% | x | x | x | 15%[46.1 µM] | u | 3.1% | -9%
3 | CCOc1ccc(CCNC(=O)c2c(C)nn(-c3ccccc3)c2Cl)cc1OCC | 0% | -5% | -1% | -13% | -9%[46.1 µM] | -14%[46.1 µM] | x | x
4 | COc1ccccc1/C=N/NC(=O)c1cccc(NC(=O)c2ccccc2C)c1 | -14% | -8% | 5% | 3% | 16% | -11% | x | x
5 | COc1ccc(-c2nc(CCNC(=O)c3ccco3)cs2)cc1OC | -1% | -13% | u | 13% | u | u | -26% | -3%
6 | CCOC(=O)CN1C(=O)S/C(=C/c2ccc(OCc3ccc(C(=O)O)cc3)cc2)C1=O | -11% | 2% | 3% | 8% | 19%[46.1 µM] | 11%[46.1 µM] | x | x

(further entries)
nr	compound	2A StopGo	SARS PLpro yeast	NS1 function inh	RE007 growth inh
13	NC(=O)CSc1nc(-c2ccccc2)nc2ccccc12	0%	0%	6%	-7%
14	CCOC(=O)C1CCN(S(=O)(=O)c2ccc3c(c2)CCN3C(C)=O)CC1	u	-6%	2%	-8%
15	Cc1c(C(=O)NCc2ccccc2Cl)sc2nc[nH]c(=O)c12	9%	x	x	x
16	CC1=NN(C(=O)c2csc(C)c2C)C(O)(C(F)(F)F)C1 (stereo not drawn)	-8%	-9%	7%	3%
17	Cc1ccc(C(=O)c2c(N)c(C(=O)Nc3ccccc3Cl)c3ccccn23)cc1	-24%	x	x	x
18	CCN(CC)c1ccc(/C=N/n2c(C)cc(C)cc2=O)cc1	21%	5%	-49%	7%
19	CCCCCn1c(=NC(=O)c2cccnc2)c(C#N)cc2c(=O)n3cccc(C)c3nc21	-18%	x	x	1%
20	O=C1C(Cl)=C(NCCCN2CCOCC2)C(=O)N1CCc1ccccc1	3%	0%	-2%	-1%
21	CCc1ccccc1NC(=O)c1ccc(S(=O)(=O)N2CCCC2)cc1	-5%	-2%	-2%	9%
22	O=C(N/N=C/c1ccccn1)c1cc(Br)ccc1O	-6%	-8%	-78%	-1%
23	Cc1ccc(NC(=O)c2cc3c(s2)CCC3)cc1S(=O)(=O)N1CCOCC1	u	-6%	4%	-23%[3.69 µM]
24	CO/N=C/c1ccc(Sc2ccccc2N)c([N+](=O)[O-])c1	-19%	11%	2%	u

nr	Lassa entry inh	Marburg entry inh	Cruzain Triton	Cruzain inh noDet
13	x	x	x	x
14	x	x	x	x
15	5%[46.1 µM]	x	-2.3%	-15%
16	10%	u	2.3%	10%
17	18%[46.1 µM]	u	-2.1%	2%
18	-11%	9%	-3.9%	-8%
19	-18%	1%[46.1 µM]	x	x
20	-3%	16%	3.8%	-11%
21	-1%	-1%[46.1 µM]	x	x
22	u	-12%[46.1 µM]	x	x
23	-12%	-20%	-5.2%	7%
24	u	-23%	-11%	-4%

From compound 22 as far as 24, copied from above:
nr	compound	2A StopGo	SARS PLpro yeast	NS1 function inh	RE007 growth inh
22	O=C(N/N=C/c1ccccn1)c1cc(Br)ccc1O	-6%	-8%	-78%	-1%
23	Cc1ccc(NC(=O)c2cc3c(s2)CCC3)cc1S(=O)(=O)N1CCOCC1	u	-6%	4%	-23%[3.69 µM]
24	CO/N=C/c1ccc(Sc2ccccc2N)c([N+](=O)[O-])c1	-19%	11%	2%	u

nr	Lassa entry inh	Marburg entry inh	Cruzain Triton	Cruzain inh noDet
22	u	-12%[46.1 µM]	x	x
23	-12%	-20%	-5.2%	7%
24	u	-23%	-11%	-4%

Full records, quoted from the list. Order of screens: 2A StopGo	SARS PLpro yeast	NS1 function inh	RE007 growth inh	Lassa entry inh	Marburg entry inh	Cruzain Triton	Cruzain inh noDet
`CCc1ccccc1NC(=O)c1ccc(S(=O)(=O)N2CCCC2)cc1` as listed: -5%	-2%	-2%	9%	-1%	-1%[46.1 µM]	x	x
`Cc1ccc(C(=O)c2c(N)c(C(=O)Nc3ccccc3Cl)c3ccccn23)cc1` as listed: -24%	x	x	x	18%[46.1 µM]	u	-2.1%	2%

The results go on:
nr	compound	2A StopGo	SARS PLpro yeast	NS1 function inh	RE007 growth inh
25	CCCCOC(=O)N1CCOCCOCCN(C(=O)OCCCC)CCOCCOCC1	-21%	-2%	3%	6%
26	O=[N+]([O-])c1cccc(-c2nnc(C34CC5CC(CC(C5)C3)C4)o2)c1	9%	-1%	8%	-5%
27	O=C(CCCCCn1c(=S)[nH]c2ccccc2c1=O)N1CCC2(CC1)OCCO2	-2%	-2%	-10%	34%
28	COc1ccc(C(=O)c2sc(Nc3cc(Cl)ccc3C)nc2N)cc1OC	0%	x	x	x
29	Cc1cccc(NC(=O)COc2cccc3c2CCN(C)C3=O)c1C	u	-2%	x	-18%
30	Oc1ccc(C2CNCc3sccc32)cc1O (stereo not drawn)	-17%	x	4%	2%[18.4 µM]
31	c1cncc(CSc2nnc(-c3cccnc3)n2Cc2ccco2)c1	x	-5%	5%	x
32	c1ccc(-c2cnnc(SCc3cn4cccnc4n3)n2)cc1	11%	-6%	-34%	17%
33	COc1ccccc1CNC(=O)C1CCCN(c2nnc(-n3c(C)ccc3C)s2)C1 (stereo not drawn)	-11%	x	x	x
34	CCc1ccc(Nc2ncc3c(n2)CC(C)CC3=O)cc1 (stereo not drawn)	73%[activator]	0%	1%	-11%
35	Cc1ccc(S(=O)(=O)Nc2ccc(N3CCOCC3)cc2)cc1	x	-11%	-6%	7%

nr	Lassa entry inh	Marburg entry inh	Cruzain Triton	Cruzain inh noDet
25	-17%	4%[46.1 µM]	2.5%	u
26	3%	u	-2.2%	-8%
27	7%	12%	1.5%	-1%
28	8%[46.1 µM]	x	1.2%	9%
29	4%	-6%[46.1 µM]	x	x
30	8%	u	4.4%	4%
31	x	x	6.0%	-1%
32	7%	-8%	-18%	u
33	-16%[46.1 µM]	-25%[46.1 µM]	-3.7%	-6%
34	u	u	x	x
35	-14%	14%	-1.2%	5%
